Bioassay records as filed in PubChem BioAssay.
MLL AF4-AF9 inh = inhibitors of human MLL-AF4/AF9 interaction. P42568. AlphaScreen, biotin-AF4 peptide binding to FLAG-AF9. inhibition, % at 10 µM. hit rate 0.47% among 350,000;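 active means every replicate reaching a set inhibition limit, whatever the replicate mean, cut at about 25% in these data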;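 further: 0% = plate neutral control median and 100% = total signal loss; the record names both 10 and 1 µM as test concentration; the first replicate is given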
Target sequence (P42568 whole entry, looked up): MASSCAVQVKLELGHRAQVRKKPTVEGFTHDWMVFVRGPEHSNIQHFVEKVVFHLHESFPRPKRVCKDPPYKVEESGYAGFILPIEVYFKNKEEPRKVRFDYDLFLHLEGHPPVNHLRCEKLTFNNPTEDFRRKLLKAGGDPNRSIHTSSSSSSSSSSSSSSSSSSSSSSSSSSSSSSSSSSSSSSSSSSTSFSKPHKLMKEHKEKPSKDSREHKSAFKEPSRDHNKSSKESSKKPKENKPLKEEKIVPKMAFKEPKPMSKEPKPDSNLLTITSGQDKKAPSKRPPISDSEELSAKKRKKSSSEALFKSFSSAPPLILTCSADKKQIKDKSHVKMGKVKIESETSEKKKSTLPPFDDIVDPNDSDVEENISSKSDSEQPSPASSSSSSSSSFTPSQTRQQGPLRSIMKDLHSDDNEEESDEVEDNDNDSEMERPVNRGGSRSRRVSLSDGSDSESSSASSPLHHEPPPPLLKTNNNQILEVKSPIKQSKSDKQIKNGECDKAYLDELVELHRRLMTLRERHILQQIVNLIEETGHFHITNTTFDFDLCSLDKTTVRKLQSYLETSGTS
rRNA inh HTS = selective bacterial rRNA inhibition in E. coli. E. coli WT GFP vs humanized-ribosome RFP mutants, fluorescence, 24 h; hits give low values; DMSO median 0, no signal -100. GFP signal change (wild-type ribosome), % (no concentration beside the values). hit rate 1.6% among 350,000. AID 720706;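 active means significant combined selectivity score with lowered wild-type GFP, culture density cut under 30%, mutant RFP and density less affected; inactive means any of these conditions unmet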; further: one replicate is shown; some compounds called inactive have numbers as strong as hits
rRNA inh HTS OD600 = second read-out of rRNA inh HTS, no call of its own (marks repeat the call); OD600 change, %; measured here: OD600 growth;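 optical density of the mix in the first replicate; 0 = DMSO median and -100 = no signal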
rRNA inh HTS RFP = also measured in rRNA inh HTS; calls as there; RFP signal change, %; measured here: RFP humanized mutant strains;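 first replicate; 0 = DMSO median and -100 = no signal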
An asterisk follows results filed as active; & = joins results of further samples. Only part of the results is shown; count on the stated rates, not on these rows.

| entry | SMILES | MLL AF4-AF9 inh | rRNA inh HTS | rRNA inh HTS OD600 | rRNA inh HTS RFP |
| --- | --- | --- | --- | --- | --- |
| 1 | CCOC(=O)[C@]12CCC=C1N(Cc1ccccc1)C(=O)[C@H](CC(=O)N1CCCCC1)C2 | -2.4 | 5 | 6 | 0.3 |
| 2 | N#C[C@H]1[C@@H](c2ccc(C#CC3CCCCC3)cc2)[C@H](CO)N1C(=O)c1cccc(F)c1 | -16 | 9 | -5 | 3.2 |
| 3 | OC(c1ccc(F)c(F)c1)c1nc(-c2cccc3cccnc23)cs1 (configuration not stated) | -0.8 | -51 | -75 | -22 |
| 4 | COc1ccc(-c2ccc3c(c2)O[C@@H](CN(C)CC2CCOCC2)[C@H](C)CN([C@H](C)CO)S3(=O)=O)cc1 | 1.0 | -4 | -24 | 19 |
| 5 | Cc1noc(C)c1NC(=O)N(C)C[C@@H]1Oc2ccc(NS(=O)(=O)c3cccs3)cc2C(=O)N([C@H](C)CO)C[C@@H]1C | -12 | -1 | 1 | -1.8 |
| 6 | C[C@@H]1CN([C@H](C)CO)C(=O)c2cccc(NS(=O)(=O)c3ccc(Cl)cc3)c2O[C@H]1CN(C)Cc1ccc(C(F)(F)F)cc1 | 3.2 | 1 | -6 | -0.7 |
| 7 | COc1ccccc1-c1ccc([C@@H]2[C@H](CO)N3CCCCN(C(=O)c4ccncc4)C[C@@H]23)cc1 | -1.9 | 4 | 3 | -3.2 |
| 8 | C[C@@H]1CN([C@@H](C)CO)C(=O)Cc2cc(NC(=O)Nc3ccc(F)cc3)ccc2O[C@@H]1CN(C)Cc1ccncc1 | 1.2 | -6 | -13 | 4.3 |
| 9 | COc1cccc(C#Cc2ccc3c(c2)[C@@H]2[C@@H](CCN2S(=O)(=O)c2cccc(OC)c2)[C@@H](CO)N3)c1 | -1.3 | 6 | 14 | 2.3 |
| 10 | C[C@@H]1CCCCO[C@@H](CN(C)C(=O)Nc2ccc(F)cc2)[C@@H](C)CN([C@H](C)CO)C(=O)c2cc(NC(=O)c3ccncc3)ccc2O1 | -4.2 | 2 | 5 | -2.6 |
| 11 | O=C(COC(=O)c1cc(S(=O)(=O)N2CCCCC2)ccc1N1CCOCC1)c1ccccc1Cl | 1.3 | 2 | -2 | 4.8 |
| 12 | CCC(=O)N1CC[C@@H]2[C@H]1c1cc(-c3cccc(OC)c3)ccc1N(C)[C@@H]2CO | 3.1 | 0 | -3 | 4.4 |
| 13 | O=C(Cc1ccncc1)NCC[C@@H]1CC[C@@H](NC(=O)Nc2cccc(F)c2)[C@H](CO)O1 | 1.2 | 0 | 0 | -0.4 |
| 14 | C/C=C/c1ccccc1[C@H]1[C@@H](C#N)N(C(=O)c2cccnc2)[C@@H]1CO | -1.2 | 6 | 15 | -2.8 |
| 15 | C[C@@H]1CN([C@H](C)CO)C(=O)Cc2cc(NS(=O)(=O)c3cn(C)cn3)ccc2O[C@H]1CN(C)C(=O)Nc1ccc(F)cc1 | -1.9 | 2 | 7 | -0.1 |
| 16 | COc1ccccc1-c1cn(CC[C@@H]2CC[C@H](NC(=O)C3CCCCC3)[C@@H](CO)O2)nn1 | -1.1 | 1 | -1 | 1.5 |
| 17 | CC(=O)NCCCNC(=S)NCCCN(Cc1ccc(Cl)cc1)c1ccc(Br)cn1 | 8.4 | -52 | -80 | -14 |
| 18 | Cc1ccccc1-c1cnc2c(c1)C(=O)N([C@H](C)CO)C[C@H](C)[C@@H](CN(C)C(=O)c1ccncc1)O2 | -2.6 | 3 | 7 | -2.9 |
| 19 | Cc1ccc(S(=O)(=O)N(C)C[C@H]2OCCCC[C@@H](C)Oc3ccc(NC(=O)Nc4cccc5ccccc45)cc3C(=O)N([C@@H](C)CO)C[C@@H]2C)cc1 | 0.8 | -2 | 4 | -3.2 |
| 20 | COCC(=O)Nc1ccc2c(c1)[C@H]1C[C@H](CC(=O)NCCN3CCCCC3)O[C@@H](CO)[C@H]1O2 | -16 | 2 | 12 | 2.9 |
| 21 | CC(=O)N(C)C[C@@H]1Oc2cc(-c3ccncc3)ccc2S(=O)(=O)N([C@H](C)CO)C[C@@H]1C | -2.2 | 5 | 5 | -5.1 |
| 22 | O=C(C[C@@H]1CC[C@@H](NC(=O)Nc2cccc(F)c2)[C@H](CO)O1)NCC1CC1 | -4.3 | 2 | 2 | 0.5 |
| 23 | CCOC(=O)C1=CN(Cc2cccc(F)c2)S(=O)(=O)N(C)C1c1cccc(OC)c1 (configuration not stated) | -2.2 | 13 | 10 | 1.5 |
| 24 | C[C@@H]1CN([C@H](C)CO)C(=O)c2cc(NS(=O)(=O)c3cccs3)ccc2O[C@@H]1CN(C)C | -0.9 | -4 | -3 | -0.5 |
| 25 | CCN1[C@H](C(=O)Nc2ccccc2)[C@@H](CO)[C@@H]2Cn3c(ccc(-c4ccncc4)c3=O)[C@@H]21 | 0.2 | 0 | 6 | -1.3 |

3 structures out of the list, arranged by count of non-hydrogen atoms, ascending:
| entry | SMILES | MLL AF4-AF9 inh | rRNA inh HTS | rRNA inh HTS OD600 | rRNA inh HTS RFP |
| --- | --- | --- | --- | --- | --- |
| 24 | C[C@@H]1CN([C@H](C)CO)C(=O)c2cc(NS(=O)(=O)c3cccs3)ccc2O[C@@H]1CN(C)C | -0.9 | -4 | -3 | -0.5 |
| 8 | C[C@@H]1CN([C@@H](C)CO)C(=O)Cc2cc(NC(=O)Nc3ccc(F)cc3)ccc2O[C@@H]1CN(C)Cc1ccncc1 | 1.2 | -6 | -13 | 4.3 |
| 6 | C[C@@H]1CN([C@H](C)CO)C(=O)c2cccc(NS(=O)(=O)c3ccc(Cl)cc3)c2O[C@H]1CN(C)Cc1ccc(C(F)(F)F)cc1 | 3.2 | 1 | -6 | -0.7 |

More entries
| entry | SMILES | MLL AF4-AF9 inh | rRNA inh HTS | rRNA inh HTS OD600 | rRNA inh HTS RFP |
| --- | --- | --- | --- | --- | --- |
| 26 | C[C@@H]1CN([C@H](C)CO)C(=O)Cc2cc(NC(=O)Cc3ccccc3)ccc2O[C@H]1CN(C)S(=O)(=O)c1ccc(Cl)cc1 | 0.7 | -3 | 2 | 2.4 |
| 27 | COCC(=O)N(C)C[C@@H]1Oc2cc(Br)ccc2S(=O)(=O)N([C@@H](C)CO)C[C@@H]1C | -2.7 | 0 | 3 | -4.7 |
| 28 | C[C@@H]1CN([C@H](C)CO)S(=O)(=O)c2ccc(-c3cccnc3)cc2O[C@H]1CN(C)C(=O)NC1CCCCC1 | 3.3 | -4 | -10 | -0.5 |
| 29 | COc1cccc(NC(=O)N(C)C[C@@H]2Oc3ncc(C4=CCCCC4)cc3C(=O)N([C@@H](C)CO)C[C@@H]2C)c1 | 2.2 | 0 | 7 | 1.0 |
| 30 | O=C(C[C@@H]1CC[C@@H]2[C@H](COC[C@H](O)CN2S(=O)(=O)c2ccc(Cl)cc2)O1)N[C@H]1CCN(Cc2ccccc2)C1 | 2.8 | -3 | 0 | -1.9 |
| 31 | C[C@H](CO)N1C[C@H](C)[C@H](CN(C)Cc2ccc3c(c2)OCO3)Oc2ncc(-c3ccccc3)cc2C1=O | 3.7 | -2 | 2 | -1.8 |
| 32 | Cc1cc(F)ccc1-c1cc(C(=O)NC2CCCCC2)[nH]n1 | 3.3 | -9 | -26 | -5.2 |
| 33 | CCCCn1nnnc1C(c1ccccc1)N1CCN(c2ncc(C(F)(F)F)cc2Cl)CC1 (configuration not stated) | -7.5 | 6 | 7 | 0.1 |
| 34 | O=C(C[C@H]1C=C[C@@H](NC(=O)Nc2ccc3c(c2)OCO3)[C@H](CO)O1)NCc1ccc(F)cc1 | 1.1 | 2 | 1 | -0.7 |
| 35 | Cc1ccc(S(=O)(=O)Nc2ccc3c(c2)C(=O)N([C@@H](C)CO)C[C@@H](C)[C@H](CN(C)C(=O)NC2CCCCC2)OCCCC[C@@H](C)O3)cc1 | -4.1 | 2 | 1 | 2.7 |
| 36 | COc1cccc(NC(=O)N[C@@H]2CC[C@H](CC(=O)N3CCCCC3)O[C@@H]2CO)c1 | -1.7 | 1 | 1 | -0.2 |
| 37 | CCCNC(=O)C1(C)CCCN(C(=O)c2cccc(OC(F)(F)F)c2)C1 (configuration not stated) | -0.5 | -2 | 2 | 0.2 |
| 38 | O=C(c1ccccc1)N1CC(=O)N2[C@H](CO)[C@H](c3ccc(C4=CCCC4)cc3)[C@@H]2C1 | 1.7 | 1 | -23 | 2.5 |
| 39 | CCC(=O)N(C)C[C@@H]1Oc2cc(C#Cc3ccccc3)ccc2S(=O)(=O)N([C@@H](C)CO)C[C@H]1C | -5.1 | -11 | -37 | -6.1 |
| 40 | CCCC#Cc1cnc2c(c1)C(=O)N([C@H](C)CO)C[C@H](C)[C@H](CN(C)Cc1ccccc1F)O2 | -1.2 | 3 | -7 | 1.0 |
| 41 | Cc1noc(C)c1S(=O)(=O)N(C)C[C@@H]1Oc2c(NC(=O)C3CC3)cccc2C(=O)N([C@H](C)CO)C[C@@H]1C | 0.5 | -1 | 4 | 0.6 |
| 42 | Cc1ccc(CN2CC(=O)N3[C@H](C2)[C@H](c2ccc(-c4ccccc4F)cc2)[C@@H]3CO)cc1 | 3.6 | -7 | -41 | 2.9 |
| 43 | O=C(C[C@@H]1CC[C@H]2[C@@H](COC[C@H](O)CN2C(=O)Cc2ccccc2)O1)NC1CCC1 | -1.2 | 0 | -3 | -0.8 |
| 44 | O=C(CC1CC1)N1[C@H](CO)[C@H]2c3ccccc3N(S(=O)(=O)c3ccccc3F)C[C@H]21 | -0.3 | -5 | -5 | 0.5 |
| 45 | C[C@H]1CN([C@@H](C)CO)C(=O)c2cc(NC(=O)Cc3ccccc3)ccc2O[C@@H]1CN(C)CC1CC1 | 1.6 | 7 | 5 | 1.7 |
| 46 | C[C@H](O)C#Cc1cnc2c(c1)C(=O)N([C@H](C)CO)C[C@H](C)[C@H](CN(C)C(=O)CN(C)C)O2 | -1.6 | 1 | 1 | -1.6 |
| 47 | CN1CCN(C(=O)[C@@H]2[C@@H](CO)[C@@H]3Cn4c(ccc(C5=CCCCC5)c4=O)[C@H]2N3S(C)(=O)=O)CC1 | 6.6 | 1 | 5 | -1.7 |
| 48 | Cc1noc(C)c1S(=O)(=O)Nc1ccc2c(c1)C(=O)N([C@H](C)CO)C[C@@H](C)[C@H](CN(C)C(=O)Nc1ccc(F)cc1)OCCCC[C@H](C)O2 | -2.8 | -5 | 0 | 2.0 |
| 49 | C[C@@H]1CN([C@H](C)CO)S(=O)(=O)c2ccc(/C=C/c3ccccc3)cc2O[C@@H]1CN(C)C(=O)C1CC1 | 7.0 | 0 | -29 | 3.5 |
| 50 | O=C(NC1CCCC1)C(c1ccccc1)n1c(-c2ccc3c(c2)CCO3)nc2ccccc21 (configuration not stated) | 1.8 | -9 | -29 | -2.1 |
| 51 | CC(C)NC(=O)Nc1ccc2c(c1)CC(=O)N([C@H](C)CO)C[C@H](C)[C@H](CN(C)C(=O)Nc1ccccc1)O2 | -1.6 | 1 | 4 | -1.3 |
| 52 | CC(C)NC(=O)N(C)C[C@@H]1OCCCC[C@H](C)Oc2ccc(NC(=O)CCC(F)(F)F)cc2C(=O)N([C@H](C)CO)C[C@@H]1C | -2.0 | 2 | 5 | -2.0 |
| 53 | CCCNC(=O)[C@H]1[C@H](CO)[C@H]2Cn3c(ccc(-c4ccc(F)cc4)c3=O)[C@@H]1N2C(=O)NC(C)C | -8.8 | 1 | 0 | 0.2 |
| 54 | O=C(CN1CCOCC1)N1CC(=O)N2[C@H](CO)[C@@H](c3ccc(-c4ccccc4)cc3)[C@H]2C1 | -1.1 | 3 | 20 | -4.4 |
| 55 | N#C[C@H]1[C@H](c2ccc(C#CC3CC3)cc2)[C@H](CO)N1C(=O)Cc1ccccn1 | -0.6 | 1 | -1 | 0.0 |
| 56 | C[C@H]1CCCCO[C@@H](CN(C)Cc2ccc3c(c2)OCO3)[C@@H](C)CN([C@@H](C)CO)C(=O)c2cc(NS(=O)(=O)c3ccc(Cl)cc3)ccc2O1 | 17&0.6 | 2 | -6 | 0.4 |
| 57 | Cc1noc(C)c1NC(=O)Nc1cccc2c1O[C@H](CN(C)Cc1ccc(-c3ccccc3)cc1)[C@@H](C)CN([C@@H](C)CO)C2=O | -2.5 | -3 | -2 | 0.5 |
| 58 | CCCS(=O)(=O)NC(=O)C1(C)CCCN(C(=O)Cc2ccc3ccccc3c2)C1 (configuration not stated) | 2.8 | -4 | 8 | -0.9 |
| 59 | C[C@H](CO)N1C[C@H](C)[C@H](CN(C)Cc2ccc(Oc3ccccc3)cc2)Oc2cc(-c3ccncc3)ccc2S1(=O)=O | -1.4 | -5 | -9 | 6.4 |
| 60 | C/C=C/c1ccc([C@@H]2[C@@H](CN(C)C(=O)CC)N(C(=O)C3CC3)[C@H]2CO)cc1 | -0.1 | 2 | 1 | 0.1 |
| 61 | COc1cccc(S(=O)(=O)N2CCCCN3[C@H](CO)[C@@H](c4ccc(-c5cncnc5)cc4)[C@H]3C2)c1 | -3.7 | -2 | -2 | -1.5 |
| 62 | O=C(C[C@H]1CC[C@H]2[C@@H](COC[C@@H](O)CN2C(=O)Nc2cccc(Cl)c2)O1)NCC1CCCCC1 | -1.8 | -54 | -74 | -14 |
| 63 | COc1cccc(S(=O)(=O)N(C)C[C@H]2Oc3cc(C4=CCCC4)ccc3S(=O)(=O)N([C@H](C)CO)C[C@H]2C)c1 | -1.7 | 3 | -8 | -1.2 |
| 64 | CC1(C(=O)NCc2cccnc2)CCN1C(=O)c1cccc(F)c1 (configuration not stated) | -5.5 | 6 | 12 | -5.1 |
| 65 | Cc1ccccc1-c1cnc2c(c1)C(=O)N([C@H](C)CO)C[C@H](C)[C@@H](CN(C)Cc1cccnc1)O2 | -3.6 | -3 | 0 | -0.3 |
